CtBP-E1A inh: inhibitors of CtBP/E1A interaction; 340,000 tested, 0.49% active; AID 651724; AlphaScreen GST-E1A/His-CtBP binding, 1536-well; stronger effect = lower value; control for the full effect not named in the record; activity change, % (concentration not given with the values); in the data active means activity change below about -65%; inconclusive means about -30% to -65%; inactive means above about -30%; note: % is set by controls: 0 for no effect and ±100 for the full control effect
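GST-E1A and His-tagged CtBP (125 nM each as 5X stock) were preincubated with pin-transferred compound for 2 h at 37 °C in the dark, then glutathione donor and nickel acceptor beads were added for 1 h before AlphaScreen reading.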
PINK1 expr mod: changes PINK1 expression | 410,000 tested, 0.2% active | Potency, µM (titrated, usually from 76.6 µM), without a hit: at the highest dose activation (PINK1 increase), usual class: activators | PINK1 immunofluorescence, high-content cytometry, 24 h; active = well fitted activation curve with a large enough effect; inconclusive = small, poorly fitted or top-dose-only effect; inactive = flat fitted curve, though single readings scatter; cell line not stated here;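 note: potency is the fitted concentration of half-maximal effect; % of control where 0% means no effect; nearly all actives have a fitted effect of over 65% in size; a mitochondrial uncoupler was the plate control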
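Decision-based qHTS: stable cells, 24 h exposure to five compound concentrations, CCCP as control. Fixed cells stained for PINK1 plus nuclear, mitochondrial and cell markers, cytometer read.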
TRPML1 ag: activates the human TRPML1 channel | Q9GZU1 | TRPML1-expressing cells, Ca2+ dye fluorescence, FDSS; host cell line not named in the record; reference of the full effect not given here | activation, % (concentration not given with the values) | 410,000 tested, 0.12% active; in the data active = activation above about 50%; inconclusive = about 30% to 50%; inactive = below about 30%; note: 0% is about no effect; the text of the record puts the active cut at 80%
Target sequence (Q9GZU1 whole entry, looked up): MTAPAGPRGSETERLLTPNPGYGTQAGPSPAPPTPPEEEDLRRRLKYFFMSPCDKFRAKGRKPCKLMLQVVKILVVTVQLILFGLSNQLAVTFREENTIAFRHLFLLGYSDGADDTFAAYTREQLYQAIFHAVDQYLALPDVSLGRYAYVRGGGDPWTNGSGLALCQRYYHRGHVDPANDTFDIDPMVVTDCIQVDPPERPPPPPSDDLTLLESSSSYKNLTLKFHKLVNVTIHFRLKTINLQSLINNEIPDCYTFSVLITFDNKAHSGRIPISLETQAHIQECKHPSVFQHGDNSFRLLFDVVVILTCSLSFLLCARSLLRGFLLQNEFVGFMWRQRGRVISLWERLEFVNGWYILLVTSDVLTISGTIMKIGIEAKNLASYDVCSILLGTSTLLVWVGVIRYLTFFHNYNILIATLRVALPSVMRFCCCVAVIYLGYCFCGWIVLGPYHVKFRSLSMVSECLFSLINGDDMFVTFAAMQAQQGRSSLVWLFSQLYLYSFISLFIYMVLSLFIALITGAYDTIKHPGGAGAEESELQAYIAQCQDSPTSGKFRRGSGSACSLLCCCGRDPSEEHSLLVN
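Tet-induced TRPML1-DL cells, 1,500 per well, cultured overnight, were loaded with a no-wash Ca2+ dye for 45–90 min. Calcium fluorescence was recorded on the FDSS for 110 s after compound addition, before the EC80 agonist (4 uM 54-4) was added.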
Six1-Eya2 blk: Six1/Eya2 interaction inhibition; 360,000 tested, 0.56% active; AlphaScreen GST-Six1/His-Eya2 binding, biochemical; stronger effect = lower value; control for the full effect not named in the record; AID 651725; activity change, % (no concentration beside the values); Q15475+O00167; in the data active = activity change below about -65%; inconclusive = about -30% to -65%; inactive = above about -30%; note: % is set by controls: 0 for no effect and ±100 for the full control effect; compound concentration not given in the record
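Compounds are tested against tagged Six1 and Eya2 proteins bridged by glutathione donor and nickel acceptor beads; after a one-hour incubation at 37 °C without light, AlphaScreen emission is recorded.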
D2 agonist: human D2 receptor agonism in beta-arrestin assay. activation, % (test concentration not listed). DiscoveRx PathHunter D2 beta-arrestin, luminescence, 90 min; 100% = 57 uM dopamine signal. P14416. AID 624465. 360,000 tested, 0.084% active; in the data active = activation above about 40%; inconclusive = about 15% to 40%; inactive = below about 15%; note: compound concentration not given in the record; the text of the record calls up to 30% inactive
Target sequence (P14416 whole entry, looked up): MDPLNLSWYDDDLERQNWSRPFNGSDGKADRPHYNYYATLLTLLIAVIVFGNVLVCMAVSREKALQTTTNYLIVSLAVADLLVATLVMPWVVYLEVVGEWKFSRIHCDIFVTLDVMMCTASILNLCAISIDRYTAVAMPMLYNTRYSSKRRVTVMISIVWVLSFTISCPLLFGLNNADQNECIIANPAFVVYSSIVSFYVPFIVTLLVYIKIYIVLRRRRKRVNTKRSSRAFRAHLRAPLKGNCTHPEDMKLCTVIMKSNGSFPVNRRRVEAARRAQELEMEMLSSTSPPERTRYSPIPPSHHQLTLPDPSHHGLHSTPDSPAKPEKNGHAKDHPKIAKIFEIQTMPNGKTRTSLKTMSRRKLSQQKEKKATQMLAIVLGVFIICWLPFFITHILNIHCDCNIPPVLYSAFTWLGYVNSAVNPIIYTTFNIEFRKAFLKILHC
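DiscoveRx PathHunter D2 beta-arrestin cells (2,100/well) attached overnight, then compound-stimulated 90 min at 37 C in HBSS/10 mM HEPES/0.1% Tween-20 buffer; beta-galactosidase complementation read by luminescence after 1 h at ambient temperature. Dopamine 57 uM final (EC100) as control.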
D2 PAM: positive allosteric modulators of human D2 dopamine receptor | P14416 | DiscoveRx D2 beta-arrestin cells, luminescence, 90 min; 100% = 57 uM dopamine signal | potentiation, % (test concentration not listed) | 360,000 tested, 0.23% active; active = potentiation of 50% or more; inconclusive = 30% to 50%; inactive = 30% or less;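 note: compound concentration not given in the record; tested on top of an EC20 dose of dopamine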
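PathHunter beta-arrestin assay in DiscoveRx D2 cells. Compounds were added with an EC20 of dopamine (50 nM final) for 90 min at 37 deg C. Luminescence was read 1 h after detection reagent, with 57 uM dopamine as the EC100 control.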
An asterisk follows results filed as active; ? = inconclusive; · = no result given; [ ] = dose if it differs, or a comment.

SMILES	CtBP-E1A inh	PINK1 expr mod	TRPML1 ag	Six1-Eya2 blk	D2 agonist	D2 PAM
Cc1cc(C(=O)CSc2nnc(C3COc4ccccc4O3)n2C)c(C)n1-c1ccc(F)cc1 (stereo not given)	-11	-1.2%	3.0	-16	-1.9	-16
COCCNC(=O)CN(C(=O)c1ccc(N2CCCC2)nc1)c1ccc(F)c(Cl)c1	-3	-0.3%	0.6	9	-1.1	-6
CN(C)S(=O)(=O)c1cc(NC2CC(=O)N(c3ccc(F)cc3)C2=O)ccc1Cl (stereo not given)	8	-0.2%	1.2	-2	8.8	14
CC(C)(C)C1CCc2c(sc(NC(=O)c3ccco3)c2C(N)=O)C1 (stereo not given)	0	9.4%	-1.0	8	-0.5	-2
C/C(Cc1ccccc1)=N\NC(=O)CNC(=O)c1ccccc1	9	0.5%	-0.1	-5	-3.5	-2
Cc1ccc(C(=O)N2CCOCC2)cc1S(=O)(=O)Nc1cccc(C)c1C	-1	-0.2%	-0.6	14	-1.6	-2
CCOc1ccccc1OCC(=O)OCC(=O)c1c(C)[nH]c2ccccc12	-6	2.5%	-0.6	-1	-0.5	1
O=C(COc1ccccc1)Nn1c(-c2ccccc2)nc2ccccc2c1=O	6	1.1%	-1.9	-11	-1.2	-3
CC(C)(C)c1cc(NC(=O)CSc2nnc(NCc3ccccc3)s2)n(-c2ccccc2)n1	-4	0.3%	2.2	-10	-2.9	1
CC(C)C(N)c1csc(Nc2ccccn2)n1 (stereo not given)	-91*	0.1%	-0.6	-83*	-3.0	-6
COc1ccc(-n2ncc3c2CC(C)(C)CC3NC(=O)CSc2ccccn2)cc1 (stereo not given)	-10	0.6%	0.6	2	8.0	9
O=S(=O)(Nc1cccc(F)c1)c1ccc(S(=O)(=O)N2CCOCC2)cc1	-17	-0.3%	1.3	13	-1.6	-9
CCOC1=C2[C@@H](CN(S(=O)(=O)c3ccc(C)cc3)[C@H]2c2ccccc2F)[C@H]2C(=O)N(C3CCCCC3)C(=O)[C@H]2C1	8	-0.4%	-0.7	9	-2.8	-1
COc1cc(/C=N/NC(=O)c2ccc(=O)[nH]n2)ccc1O	-12	2.4%	-0.1	0	2.0	3
CCOC(=O)C1=C(C)NC(C)=C(C(=O)OCC)C1c1cc(N)ccc1OC(F)F	4	-0.4%	1.6	0	-1.0	-23
COc1ccc(NC(=O)c2cccc(N3C(=O)C4C5C=CC(C6CC56)C4C3=O)c2)cc1 (stereo not given)	-4	1.8%	1.5	0	-3.8	8
O=C(CCSc1ccc(Cl)cc1)N1CCCCCC1	8	-1.4%	-1.3	3	-1.4	-7
Cc1ccc2oc(C(=O)Nc3nonc3C)c(C)c2c1	·	1.4%	-0.7	-2	-2.7	-1
COCCSc1nnc(NS(=O)(=O)Cc2ccccc2)s1	4	-3.9%[38.3 µM]	0.8	5	1.3	-5
O=C(c1cccc(C(F)(F)F)c1)C1CCCN(C(=O)C2CCOCC2)C1 (stereo not given)	11	4.0%	0.2	-2	-1.0	7
CCOC(=O)C1CN(S(=O)(=O)c2cc(OC)ccc2OC)C1	·	1.3%	0.6	5	1.5	-9
CCCCCCSC1=C(C#N)C(=O)NC2(CCCCC2)S1	22	-1.3%	-0.2	4	-2.1	-30
CN(CCNC(=O)CCNC(=O)Cn1ccc2ccccc2c1=O)Cc1ccccc1	1	-1.9%	4.1	2	-2.5	-4
Cc1ccc(-c2nc(NC(=O)c3cc(C(C)(C)C)nn3C)sc2C)cc1Cl	-6	9.5%	24	5	7.9	-3
CCn1c(C)csc1=NC(=O)c1ccccc1O	-5	-3.6%[38.3 µM]	0.9	2	4.2	-11
Cc1ccc(C)c(CSc2nnc(-c3ccccn3)n2N)c1	-30	-1.8%	1.5	-24	-2.5	-10
CC(=O)Nc1cc2c(cc1NC(=O)Cn1nc(-c3ccccc3)ccc1=O)OCCO2	6	0.0%	-0.1	-4	-2.8	-4
O=C(NCCN1CCOCC1)c1ccc(CSc2nc3ccncc3n2Cc2ccc(F)cc2)cc1	·	1.7%	0.3	-1	-6.0	-12
CN(C)CCNC(=S)Nc1cccc(Cl)c1	0	-1.5%	0.1	0	-0.9	-30
Cc1ccc2cc(C(c3nnnn3Cc3ccccc3)N3CCc4ccccc43)c(=O)[nH]c2c1C (stereo not given)	-2	26%	1.1	-4	-0.5	-10

Single records (already shown):
CCCCCCSC1=C(C#N)C(=O)NC2(CCCCC2)S1 as listed: CtBP-E1A inh = 22; PINK1 expr mod = -1.3%; TRPML1 ag = -0.2; Six1-Eya2 blk = 4; D2 agonist = -2.1; D2 PAM = -30
Cc1ccc(C)c(CSc2nnc(-c3ccccn3)n2N)c1 as listed: CtBP-E1A inh = -30; PINK1 expr mod = -1.8%; TRPML1 ag = 1.5; Six1-Eya2 blk = -24; D2 agonist = -2.5; D2 PAM = -10
CN(CCNC(=O)CCNC(=O)Cn1ccc2ccccc2c1=O)Cc1ccccc1 as listed: CtBP-E1A inh = 1; PINK1 expr mod = -1.9%; TRPML1 ag = 4.1; Six1-Eya2 blk = 2; D2 agonist = -2.5; D2 PAM = -4

Reprinted at random: two compounds from above.
SMILES	CtBP-E1A inh	PINK1 expr mod	TRPML1 ag	Six1-Eya2 blk	D2 agonist	D2 PAM
Cc1ccc(-c2nc(NC(=O)c3cc(C(C)(C)C)nn3C)sc2C)cc1Cl	-6	9.5%	24	5	7.9	-3
CCn1c(C)csc1=NC(=O)c1ccccc1O	-5	-3.6%[38.3 µM]	0.9	2	4.2	-11

Later entries
SMILES	CtBP-E1A inh	PINK1 expr mod	TRPML1 ag	Six1-Eya2 blk	D2 agonist	D2 PAM
COc1cc(C(=O)Nc2ccc(Cl)c(C(F)(F)F)c2)cc(OC)c1OC	0	5.8%	-0.5	3	0.1	-41
N#C/C(=C\c1cc2ccccc2nc1N1CCOCC1)C(=O)Nc1ccc(N2CCOCC2)cc1	-14	4.1%	-1.5	0	-0.9	25
Cc1ccccc1C(=O)Nc1ccccc1C(=O)NC1CC1	5	-0.7%	2.8	10	-4.7	-8
COCCNC(=O)c1ccc(N2CCCCC2)c(NS(=O)(=O)c2ccc(C)cc2)c1	1	-0.4%	0.0	1	0.0	-9
O=C(CCCc1ccccc1)Nc1nncs1	0	-3.2%	-0.7	18	-2.9	-13
COc1ccc(C2CC(=O)C(C=NCCO)=C(O)C2)cc1 (stereo not given)	-7	1.8%	-0.1	6	-0.4	-6
C=CCNC(=S)N1CCN(c2ncc3c(=O)c(C(=O)O)cn(CC)c3n2)CC1	-11	7.9%[38.3 µM]	-0.1	-7	-1.4	-11
Cc1nc(N)sc1-c1csc(Nc2ccccc2)n1	?	-0.5%	-0.3	?	2.0	-6
O=C(CCSCCC(=O)NCCN1CCOCC1)NCCN1CCOCC1	6	0.6%	-0.9	6	-4.2	-2
Cc1cc(Br)ccc1NC(=O)CN(C)C(=O)C1CSC2(C)CCC(=O)N12 (stereo not given)	-1	3.4%	1.7	3	-2.6	4
CCN(/C(N)=N/c1nc(C)cc(C)n1)c1ccccc1	5	-0.2%	-0.8	14	0.0	0
Nc1[nH]c(=S)[nH]c(=O)c1-c1ccccc1	1	-0.9%	-0.3	4	-2.2	-5
Cc1ccn2c(=O)nc(SCC(=O)N3CCCCCC3)nc2c1	6	-0.2%	-0.3	1	1.6	1
O=C(Nc1cccc(NC(=O)c2cccs2)c1)c1cccnc1	6	-1.2%	-0.6	-22	4.2	1
O=C(C1CCCN(c2ncnc3c2nc2n3CCCCC2)C1)N1CCN(c2ccc(F)cc2)CC1 (stereo not given)	-11	-0.2%	-0.8	-12	-1.8	10
CCNC(=O)C1(C)CCCN(Cc2cccc3ccccc23)C1 (stereo not given)	23	1.7%	-0.7	8	-4.5	-3
O=C(C1=C[C@H](C2CC2)C[C@H](OCCCCO)O1)N1CCOCC1	-21	-0.9%	0.0	8	-0.8	-3
c1csc(CNc2nc(NCC3CCCCC3)c3sccc3n2)c1	-4	3.5%	-0.4	-7	-3.3	-13
Cc1nc(-c2ccccn2)sc1C(=O)O	2	0.5%	0.0	3	-13	-5
COCC(C)NC(=O)CCSc1nc(-c2ccc(OC)cc2)cc(C(F)(F)F)n1 (stereo not given)	11	0.4%	-0.2	4	-3.9	-6
O=C(Nc1ccc(F)c(F)c1)C1CCN(S(=O)(=O)c2cccs2)CC1	7	-0.3%	0.1	-1	1.6	-10
CC(NC(=O)/C(=C/c1ccc2c(c1)OCO2)NC(=O)c1cccc([N+](=O)[O-])c1)C(=O)O (stereo not given)	1	1.0%	0.4	8	1.4	-6
CCOC(=O)CN(c1cc([N+](=O)[O-])ccc1OC)S(C)(=O)=O	·	0.4%	-0.4	5	7.5	-6
Cc1ccc(-c2cnc(NC(=O)CCC(=O)N(C)Cc3ccccc3)n2C)cc1	-12	2.2%	-1.2	-9	-1.5	-1
CCOC(=O)C1CCN(S(=O)(=O)c2ccc(CNC(=O)c3ccccc3)s2)CC1	-8	-0.5%	·	0	-4.4	-9
CCN(CC)c1ccc2c(Nc3ccccc3)c(C=O)c(=O)oc2c1	-14	7.5%	1.8	6	-18	-3
COc1cccc(OC)c1C(=O)Nc1ccc(NC(=O)c2ccco2)cc1	4	2.0%	2.4	1	-2.7	-5
CCOC(=O)C1CCCN(C(=O)c2cc3c(C)nc4ccccc4c3o2)C1 (stereo not given)	-9	3.3%[38.3 µM]	0.8	-5	-1.4	-2
CCOc1ccc(C(=O)Nc2ccc3c(c2)C(=O)NC3=O)cc1	-1	1.7%	-1.3	4	-30	-1
Cc1ccc(CNC(=O)CN(c2cccc([N+](=O)[O-])c2)S(=O)(=O)c2ccccc2)cc1	0	1.6%	1.3	-11	3.6	4
CC(C)(C)c1ccc(C(=O)NCc2nnc(SCC(=O)N3CCCc4ccccc43)n2-c2ccccc2)cc1	-10	3.9%	-0.3	1	0.6	12
COc1ccc2c(c1)C1C=CCC1C(c1cc3c(cc1Br)OCO3)N2 (stereo not given)	?	22%[38.3 µM]	0.7	?	-0.1	6
CCOc1ccc(C(C)NC(=O)C2CCCC2)cc1 (stereo not given)	0	-0.1%	-0.4	-2	-1.4	4
COC(=O)[C@H]1C[C@H](C(=O)O)[C@@H](C)C1(C)C	7	0.4%	0.3	11	-2.0	-11
COc1cc(C(=O)NC(=S)N2CCCCCC2)cc(OC)c1OC	6	1.9%	-0.5	-1	-6.7	-7
Cn1c(CSCC(=O)Nc2ccccc2)nnc1SCc1ccccc1	5	0.2%	1.6	-2	-3.5	-2
CCOC(=O)/C(C#N)=C1/SC(CCO)C(=O)N1c1ccccc1 (stereo not given)	4	-0.8%	-0.1	3	-5.3	-4
Cc1cc(-c2cccs2)c2c(n1)sc1c(=O)[nH]c(=O)[nH]c12	-29	1.4%[38.3 µM]	-0.1	?	-3.0	-3
CCOC(=O)C1(Cc2ccccc2C)CCCN(C(=O)c2ccc(C(C)=O)s2)C1 (stereo not given)	0	0.0%	-1.0	-5	1.0	-7
Cc1ccc(CN2CCSc3ccc(C(=O)NCCCN4CCOCC4)cc32)cc1	-17	0.2%	-0.7	-14	-2.2	-17
O=C(COC(=O)CCC1CCCC1)Nc1ccccc1Sc1ccccc1	64	-1.3%	0.3	28	-1.9	-5
Cc1ccc(N(C)S(=O)(=O)c2cccc(C(=O)N(C)Cc3cnn(-c4ccccc4)c3)c2)cc1	-4	-1.9%	0.3	-8	1.3	4

Screening results: PubChem, National Center for Advancing Translational Sciences (NCATS)
